Bioassay records: PubChem, National Center for Advancing Translational Sciences (NCATS)
N370S GC mod: N370S glucocerebrosidase modulation, Gaucher chaperone candidate. hit rate 0.092% among 330,000. Potency, µM (series often up to 59.4 µM), inactives show top-dose activity change, negative = inhibition, actives largely listed as inhibitors. P04062. AID 2101. N370S GC spleen homogenate, 4MU-glucoside fluorescence; active = well fitted inhibition curve with a large enough effect; inconclusive = small, poorly fitted or top-dose-only effect, or effect the other way, or another doubt; inactive = no such curve, though single readings can be large or run the other way;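 note: 0% = full enzyme activity and -100% = no enzyme basal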
* marks the source's active call; other numbers are inactive results; ? = inconclusive; & = joins results of further samples. Potency is the fitted concentration of half-maximal effect.

SMILES | N370S GC mod
CCOC(Cn1c(CCCO)nc2ccccc21)OCC | -2%
Cc1cccc(NC(=O)CCc2c(C)nc3ncnn3c2C)n1 | 9%
O=S1(=O)CCN(Cc2csc(-c3cccs3)n2)CC1 | -17%
Cc1ccc(S(=O)(=O)NC(C(=O)OCC(=O)NC(=O)c2cccn2C)C(C)C)cc1 (stereo not given) | 8%
O=C(Oc1c(Cl)cc(Cl)c2cccnc12)c1ccco1 | 9%
Cc1noc(C)c1C(=O)Nc1ccc(C#N)cc1 | -2%
CC(NC(=O)CCCOc1ccc(Cl)cc1)c1ccccc1 (stereo not given) | 1%
CN(C)c1ccc(C(c2nnnn2CCOC(=O)Nc2ccc(Cl)cc2)N2CCOCC2)cc1 (stereo not given) | 15%
CCN1C(=O)[C@@H]2[C@@H](c3ccc(-c4ccc(C(C)=O)cc4)cc3)N3CCC[C@@]3(C(=O)OC)[C@@H]2C1=O | -5%
Cn1nccc1C(=O)NCCN1C(=O)OC(C)(C)C1(C)O (stereo not given) | 4%

The closing 3 entries of the section above lead into the next.
SMILES | N370S GC mod
CN(C)c1ccc(C(c2nnnn2CCOC(=O)Nc2ccc(Cl)cc2)N2CCOCC2)cc1 (stereo not given) | 15%
CCN1C(=O)[C@@H]2[C@@H](c3ccc(-c4ccc(C(C)=O)cc4)cc3)N3CCC[C@@]3(C(=O)OC)[C@@H]2C1=O | -5%
Cn1nccc1C(=O)NCCN1C(=O)OC(C)(C)C1(C)O (stereo not given) | 4%
Cc1ccc2nc(SCc3nnc(-c4ccccc4Br)o3)[nH]c2c1 | 4%
CCC(CC)C(=O)Nc1ccc(C(=O)c2ccccc2)cc1 | 3%
Cc1ccc(NC(=O)c2ccc3c(c2)N(CC(=O)NC(C)C)C(=O)C(C)(C)O3)cc1 | 1%
C=CCN(C(=O)c1cccc(S(=O)(=O)N2CCN(C)CC2)c1)c1nc(-c2ccccc2)cs1 | ?
O=C(NCc1n[nH]c(=S)n1-c1ccccc1Cl)c1ccc(S(=O)(=O)N2CCCCC2)cc1 | 0%
COC(=O)C(CCSC)NC(=O)C(NC(=O)C1CCC(C)CC1)C(C)C (stereo not given) | 2%
COc1cc(NC(=O)COc2c(C)cc(C)cc2[N+](=O)[O-])c(OC)cc1Cl | -13%
Cc1nnc(SCC(=O)NC2CC2)n1CCc1ccccc1 | 3%
COc1cc(OC)cc(-n2nnnc2SCC(=O)Nc2nc3c(s2)CCCC3)c1 | 24%
CC1(C)CC(=O)C/C(=N\NC(=O)Cc2ccccc2)C1 | 7%
Cc1oc(S(=O)(=O)N2CCCC2)cc1C(=O)Nc1ccccc1 | -8%
COc1ccccc1NC(=S)Nc1ccccn1 | 16%
CCc1c(C)nc2cc(-c3ccc(OC)c(OC)c3)nn2c1N1CCC(C)CC1 | -11%
O=C(OCc1cccs1)c1ccccc1NS(=O)(=O)c1ccc2c(c1)OCCO2 | 15%
Cc1nn(C(C)C(=O)N2CCc3ccccc32)c(C)c1[N+](=O)[O-] (stereo not given) | 6%
COc1ccc(-c2cc(C(=O)Nc3c(C)n(C)n(-c4ccccc4)c3=O)c3ccccc3n2)cc1 | -7%
CCCOc1ccccc1N/C(=N/c1nc(C)cc(C)n1)NC(=O)Nc1ccc(Cl)cc1 | 3%
CCCCn1c(-c2csc(CCC)c2)n[nH]c1=S | 21%
O=C(NCCCN1CCOCC1)c1ccc(CS(=O)(=O)c2c(Cl)cccc2Cl)o1 | 3%
CC(=O)n1cc([C@@H]2C=C(C(=O)N3CCOCC3)O[C@H](OCCCCO)C2)c2ccccc21 | 4%
CSc1nnc(C)c(=O)n1COC(=O)c1ccc(S(=O)(=O)N(C)C)cc1 | 11%
COC(=O)CCC(=O)Nc1nnc(C(F)(F)F)s1 | 16%
O=C(Nc1ccc(-c2ccccc2)cc1)c1ccco1 | 22%
O=C1OCCN1CCNCc1cn(-c2ccc(F)cc2)nc1-c1ccccc1Cl | -2%
COc1ccc(Cl)cc1NC(=O)CN1CCN(S(=O)(=O)N2CCCCC2)CC1 | -6%
Cc1ccc(-n2nc(C(=O)O)c(O)cc2=O)cc1 | 5%
COc1nn(CC(=O)N2N=C(C)CC2(O)C(F)F)cc1[N+](=O)[O-] (stereo not given) | -1%
Cc1ccc(C2=Nc3ccccc3NC(C)(c3ccc(C)o3)C2)o1 (stereo not given) | -4%
Cc1cccc(NC(=O)c2onc3c2CCCC3)c1C | 6%
CS(=O)(=O)N(CC(=O)Nc1ccc(F)cc1F)c1cccc([N+](=O)[O-])c1 | 5%
CN(CCC#N)C(=O)COC(=O)c1ccc2c(=O)n3c(nc2c1)CCC3 | -3%
N#CCN(C(=O)COC(=O)C1CC2CCCC(C1)C2=O)c1ccccc1 (stereo not given) | 4%
CC(C)(C)[C@H]1C=C(C(=O)N2CCN(Cc3ccccc3)CC2)O[C@@H](OCCCCO)C1 | 7%
CCCC(=O)N(c1ccccc1)C1C=CS(=O)(=O)C1 (stereo not given) | -10%
Fc1ccc(Nc2nc(-c3ccncc3)cs2)cc1 | -16%
COc1ccccc1CC(NC(C)=O)C(=O)NC1CCN(C(=O)Nc2cccc(F)c2)CC1 (stereo not given) | -11%
C=CCNC(=O)C1CC(=O)N(c2ccc(Br)cc2)C1 (stereo not given) | -3%
COc1ccc(S(=O)(=O)N2CCCC(C(=O)N3CCOCC3)C2)cc1OC (stereo not given) | -3%
Cc1nn(C)cc1/C=N\NC(=O)c1ccc(Cn2cc(Cl)cn2)cc1 | -3%
C/C(CC(=O)Nc1ccccc1C)=N\NC(=O)Cc1csc(N)n1 | 0%
CCN(CC)S(=O)(=O)c1ccc(C(=O)Nc2cc3oc4ccccc4c3cc2OC)cc1 | 10%
COC(=O)C1=C(CN2CCCc3ccccc32)NC(=O)NC1c1ccc(F)cc1 (stereo not given) | -4%
COCCn1c(=O)[nH]c2cc(C(=O)Nc3nnc(C)s3)ccc21 | -1%
CCOc1ccc(C(=O)CCC(=O)NC2=NCCS2)cc1 | -4%
Cc1ccccc1NC(=O)CSc1nc(Nc2ccccc2)nc(N2CCOCC2)n1 | 2%
CCc1cc(C(=O)COc2ccccc2F)c(O)cc1O | 2%
O=C(COc1ccc(S(=O)(=O)N2CCOCC2)cc1)Nc1ccccc1Cl | 0%
CC(=O)[C@@H]1[C@@H](C(=O)c2ccc(C)cc2)[C@]2(C(=O)Nc3ccccc32)[C@H]2C=Cc3cc(F)ccc3N12 | -10%
O=C(O)C12CC3CC(C1)CC(n1cnc(Cl)n1)(C3)C2 | 11%
COc1ccc(C(=O)OCC(=O)NC(=O)CCSc2ccccc2)cc1 | 6%

A draw from above in order of molar mass, lowest first.
SMILES | N370S GC mod
COc1ccccc1NC(=S)Nc1ccccn1 | 16%
Cc1cccc(NC(=O)c2onc3c2CCCC3)c1C | 6%
CSc1nnc(C)c(=O)n1COC(=O)c1ccc(S(=O)(=O)N(C)C)cc1 | 11%
CCCOc1ccccc1N/C(=N/c1nc(C)cc(C)n1)NC(=O)Nc1ccc(Cl)cc1 | 3%

Remaining list, next part.
SMILES | N370S GC mod
CCS(=O)(=O)NCC(c1ccco1)N1CCN(c2ccccc2)CC1 (stereo not given) | 2%
O=C(NC1CC1)C1CCN(S(=O)(=O)c2cc(Cl)ccc2Cl)CC1 | -16%
Cn1c(C(=O)NCCCN2CCN(c3ccccc3F)CC2)cc2c(=O)[nH]c3ccccc3c21 | 1%
O=C1c2cccc(O)c2C(=O)c2c(O)cccc21 | 8%&-3%&-3%
CNc1nnc(-c2ccncc2)s1 | -15%
O=C(CSc1ccc([N+](=O)[O-])cn1)Nc1ccc2c(c1)OCO2 | 2%
O=C(CSc1nnc(Cc2ccccc2)o1)NC1CCCCC1 | 1%
C=CCC1(CC=C)CCCN1C(=O)CC1C(=O)NCCN1Cc1cc(OC)cc(OC)c1 (stereo not given) | -8%
O=C(COC(=O)c1cccc([N+](=O)[O-])c1)NCC1CCCO1 (stereo not given) | 4%
CCOC(=O)C1CCN(C(=O)c2cc3ccccc3oc2=O)CC1 | -2%

Gathered by group, those above with an NH in an aromatic ring
SMILES | N370S GC mod
Cc1ccc2nc(SCc3nnc(-c4ccccc4Br)o3)[nH]c2c1 | 4%
O=C(NCc1n[nH]c(=S)n1-c1ccccc1Cl)c1ccc(S(=O)(=O)N2CCCCC2)cc1 | 0%
CCCCn1c(-c2csc(CCC)c2)n[nH]c1=S | 21%
COCCn1c(=O)[nH]c2cc(C(=O)Nc3nnc(C)s3)ccc21 | -1%
Cn1c(C(=O)NCCCN2CCN(c3ccccc3F)CC2)cc2c(=O)[nH]c3ccccc3c21 | 1%

The results go on:
SMILES | N370S GC mod
CC(=O)c1c(C)[nH]c(C(=O)Nc2cccc(S(=O)(=O)N(C)c3ccccc3)c2)c1C | -8%
CC1Sc2ccc(S(=O)(=O)N3CCC(C(=O)N(C)Cc4ccccc4)CC3)cc2NC1=O (stereo not given) | -9%
CC(C)(C)C(=O)Nc1nnc(SCc2ccc(F)cc2)s1 | 8%
CCOC(=O)c1c[nH]c2c(C(F)(F)F)cccc2c1=O | 6%
O=C1C2C3c4ccccc4C(Br)(c4ccccc43)C2C(=O)N1c1ccccc1O (stereo not given) | 2%
O=S(=O)(Nc1cccc(-n2cnnn2)c1)c1ccc(F)cc1 | -7%
Cc1nnc(NC(=O)CSc2ccccn2)s1 | 16%
N#C/C(=C\c1ccccc1Cl)C(=O)NC(=O)Oc1ccccc1 | 6%
O=C(NCc1ccccn1)c1cccc(NS(=O)(=O)c2ccccc2)c1 | 0%
Cc1ccc(C)c(NC(=S)NC(NC(=O)OCc2ccccc2)C(Cl)(Cl)Cl)c1 (stereo not given) | 8%

In a second layout: entries from further up.
Compound	N370S GC mod
COc1ccc(C(=O)OCC(=O)NC(=O)CCSc2ccccc2)cc1	6%
CCS(=O)(=O)NCC(c1ccco1)N1CCN(c2ccccc2)CC1 (stereo not given)	2%
O=C(NC1CC1)C1CCN(S(=O)(=O)c2cc(Cl)ccc2Cl)CC1	-16%

Next section
SMILES | N370S GC mod
CCC/C(=N/NC(=O)c1ccc2c(c1)OCO2)c1cccs1 | 0%
CCOc1ccc(NC(=O)CN2C(=O)/C(=C3\SC(=S)N(C4CCS(=O)(=O)C4)C3=O)c3ccccc32)cc1 (stereo not given) | 10%
CCOC(=O)CN1CC23C=CC(O2)C(C(=O)Nc2ccc(OC)cc2OC)C3C1=O (stereo not given) | 7%
O=C1CC(N2CCN(C(c3ccccc3)c3ccccc3)CC2)C(=O)N1 (stereo not given) | -19%
Cc1ccc(S(=O)(=O)N2CCC(=O)N(CCOC(=O)Nc3ccc(C)c(C)c3)CC2)cc1 | 6%&23%
COc1ccc(CCN(C)C(=O)COC(=O)/C=C/c2ccc(C)o2)cc1OC | -5%
Cc1ccc(C(=O)CC(SCC(=O)O)c2ccc([N+](=O)[O-])cc2)cc1 (stereo not given) | 7%
CC1(C)CC(NC(=O)Nc2ccc([N+](=O)[O-])cc2)CC(C)(C)N1 | -15%
Cc1cccc(Nc2nc(NCc3ccco3)c3ccccc3n2)c1 | 1%
Cc1nc(C(C)N(C)Cc2nc(Cc3ccccc3F)no2)c(C)s1 (stereo not given) | -7%
Cc1ccc(CSc2nncn2-c2ccccn2)cc1 | 22%
O=C(O)CCCNC(=O)/C(=C\c1ccccc1F)NC(=O)c1ccccc1 | 0%
Cc1ccccc1C(=O)N1CCC(C(=O)NC2CCCC2)CC1 | 0%
CC(C)CC(NC(=O)COc1ccccc1)C(=O)O (stereo not given) | 9%
CCC(=O)OCCNc1cc(SCCC(=O)OC)c2nonc2c1[N+](=O)[O-] | 3%
Cn1cc(S(=O)(=O)NCc2ccc3c(c2)OCO3)c(C(F)(F)F)n1 | -6%
S=C(NNc1ccc2ccccc2c1)NC1CCCCC1 | 8%
Clc1ccccc1Sc1cnc2ccccc2n1 | 28%
CC1=C(C(=O)NC(C)c2ccccc2)C2(CCC(C)CC2)OC1=O (stereo not given) | -1%
O=C(O)c1ccc(Sc2ccccn2)c([N+](=O)[O-])c1 | 8%
O=C(c1ccc2nc(N3CCOCC3)sc2c1)N1CCN(c2ccc(Cl)cc2)CC1 | 0%
Cc1nnc(N(CCC#N)CCC#N)s1 | 11%
CC1CCCCC1NC(=O)CCS(=O)(=O)c1ccc2c(c1)NC(=O)CO2 (stereo not given) | -17%
O=C(CC1Sc2ccccc2NC1=O)Nc1cccc(C(=O)O)c1 (stereo not given) | 0%
O=C(Nc1ccc(SC(F)F)cc1)C12CCC(CC1)C2 | 12%
CCc1cc2c(=O)c(-c3cnn(-c4ccccc4)c3)coc2c(CN2CCOCC2)c1O | 1%
S=C(NCCCN1CCOCC1)Nc1ccc(Cl)cc1Cl | -4%
O=C1CC(c2ccccc2F)C2=C(COC2=O)N1 (stereo not given) | -16%
CC1(C)CC(=O)C2=C(C1)N(Cc1ccco1)C(=O)C2(O)C(F)(F)F (stereo not given) | 4%
O=C(CNC(=O)c1ccccc1)OCc1cccc([N+](=O)[O-])c1 | 4%
N#Cc1cnc(NN)nc1 | -1%
COc1ccc(C(OC(=O)c2ccco2)C(=O)NCc2ccco2)cc1 (stereo not given) | 0%
N#C/C(=C\c1ccc(C(=O)O)cc1)c1nc2sc3c(c2c(=O)[nH]1)CCCC3 | -3%
Cn1c(=O)c2cc(S(=O)(=O)NC(Cc3ccccc3)C(=O)NCC3CCCO3)ccc2n(C)c1=O (stereo not given) | -1%
COCCN1C(=O)c2ccccc2C(C(=O)N2CCN(c3ccccc3)CC2)C1c1ccc(F)cc1 (stereo not given) | -24%
O=C(CN1C2=NCCCN2c2ccccc21)c1ccc(Br)s1 | -3%
Cc1ccc(S(=O)(=O)N(C)C)cc1NC(=O)CCNC(=O)c1ccccc1Cl | 4%
O=C1c2ccccc2C(Nc2ccc(Cl)cn2)N1Cc1ccccc1 (stereo not given) | 13%
CCC(O)(CCN1CCCCC1)c1ccccc1 (stereo not given) | 5%
O=C(c1ccccc1-c1nc(-c2ccccc2)no1)N1CCOCC1 | 6%
Cc1cccc(-c2n[nH]c(S(C)(=O)=O)c2C#N)c1 | -20%
CN(/N=C/c1ccncc1)C1=NS(=O)(=O)c2ccccc21 | 2%
CC(Sc1nnc2ccccn12)C(=O)Nc1ccc2c(c1)OCCO2 (stereo not given) | 5%

Some of the compounds tested; most or all hits stand in other tables.
